Screening data (PubChem)
D2 ag – human D2 receptor agonism in beta-arrestin assay; P14416; DiscoveRx PathHunter D2 beta-arrestin, luminescence, 90 min; 100% = 57 uM dopamine signal; activation, % (no concentration beside the values); hit rate 0.084% among 360,000; AID 624465; in the data active = activation above about 40%; inconclusive = about 15% to 40%; inactive = below about 15%; further: compound concentration not given in the record; the text of the record calls up to 30% inactive
Target sequence (P14416 whole entry, looked up): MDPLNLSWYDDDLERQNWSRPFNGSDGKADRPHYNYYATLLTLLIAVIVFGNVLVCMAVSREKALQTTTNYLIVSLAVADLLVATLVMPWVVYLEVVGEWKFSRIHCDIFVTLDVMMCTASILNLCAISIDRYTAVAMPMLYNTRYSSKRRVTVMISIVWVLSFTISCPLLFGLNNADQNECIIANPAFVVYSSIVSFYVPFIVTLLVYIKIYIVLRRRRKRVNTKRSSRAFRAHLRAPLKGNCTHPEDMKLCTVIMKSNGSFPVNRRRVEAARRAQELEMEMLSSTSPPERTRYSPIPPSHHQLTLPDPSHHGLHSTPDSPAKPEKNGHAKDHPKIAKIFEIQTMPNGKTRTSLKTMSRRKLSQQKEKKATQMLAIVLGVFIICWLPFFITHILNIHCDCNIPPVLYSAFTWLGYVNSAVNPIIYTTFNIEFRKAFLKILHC
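DiscoveRx PathHunter D2 beta-arrestin cells (2,100/well) attached overnight, then compound-stimulated 90 min at 37 C in HBSS/10 mM HEPES/0.1% Tween-20 buffer; beta-galactosidase complementation read by luminescence after 1 h at ambient temperature. Dopamine 57 uM final (EC100) as control.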
TRPML1 inh – inhibitors of human TRPML1 channel. activity change, negative = inhibition, % (concentration not given with the values). AID 624415. hit rate 0.02% among 390,000. TRPML1-inducible cells, Ca2+ dye fluorescence, FDSS; hits give low values; inhibition of EC80 agonist-evoked calcium signal. Q9GZU1; in the data active means activity change below about -50%; inconclusive means about -30% to -50%; inactive means above about -30%;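 further: stimulus is agonist 54-4 at its EC80 concentration; on the % scale 0 is the no-effect control and ±100 the full control effect; compound concentration not given in the record; the text of the record puts the active cut at -80%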
Target sequence (Q9GZU1 whole entry, looked up): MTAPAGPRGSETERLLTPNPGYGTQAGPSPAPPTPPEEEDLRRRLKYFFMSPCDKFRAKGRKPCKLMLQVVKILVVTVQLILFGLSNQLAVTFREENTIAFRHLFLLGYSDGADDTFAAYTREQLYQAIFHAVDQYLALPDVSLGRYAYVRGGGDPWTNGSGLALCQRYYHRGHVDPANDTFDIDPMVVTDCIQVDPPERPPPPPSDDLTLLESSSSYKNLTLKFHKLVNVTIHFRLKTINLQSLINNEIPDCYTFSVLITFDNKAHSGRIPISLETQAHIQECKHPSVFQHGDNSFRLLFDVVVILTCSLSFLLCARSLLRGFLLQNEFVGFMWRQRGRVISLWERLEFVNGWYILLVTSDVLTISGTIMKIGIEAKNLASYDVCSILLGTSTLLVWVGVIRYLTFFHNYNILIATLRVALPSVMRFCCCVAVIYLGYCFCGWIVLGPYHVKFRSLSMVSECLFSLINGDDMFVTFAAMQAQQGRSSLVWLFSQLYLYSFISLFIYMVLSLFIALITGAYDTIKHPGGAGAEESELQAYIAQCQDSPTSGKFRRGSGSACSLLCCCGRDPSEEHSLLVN
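Tet-induced TRPML1-DL cells loaded with Ca8 no-wash calcium dye were read kinetically on FDSS. Compound addition was followed by EC80 agonist 54-4 (4 uM final); inhibition was read over 110 s.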
Six1-Eya2 inh – inhibitors of human Six1/Eya2 interaction. Q15475+O00167. AlphaScreen GST-Six1/His-Eya2 binding, biochemical; hits give low values; control for the full effect not named in the record. activity change, % (concentration not given with the values). hit rate 0.56% among 360,000. AID 651725; in the data active = activity change below about -65%; inconclusive = about -30% to -65%; inactive = above about -30%; further: on the % scale 0 is the no-effect control and ±100 the full control effect
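AlphaScreen luminescence read after one hour at 37 °C in darkness. Pin-transferred compounds met GST-Six1 and His-Eya2 protein (5X stock 250 nM/500 nM) plus glutathione donor and Ni-chelate acceptor beads (5X, 50 ug/mL).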
D2 potentiator – positive allosteric modulators of human D2 dopamine receptor; potentiation, % (no concentration beside the values); DiscoveRx D2 beta-arrestin cells, luminescence, 90 min; 100% = 57 uM dopamine signal; P14416; hit rate 0.23% among 360,000; active = potentiation of 50% or more; inconclusive = 30% to 50%; inactive = 30% or less;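 further: compound concentration not given in the record; tested on top of an EC20 dose of dopamine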
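D2 cells co-treated with compound plus 50 nM dopamine (EC20) for 90 min at 37 deg C to detect potentiation. Beta-arrestin recruitment was read as enzyme-fragment luminescence after 1 h at ambient temperature. Full response was set by 57 uM dopamine.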
TRPML1 ag – human mucolipin-1 channel agonism | TRPML1-expressing cells, Ca2+ dye fluorescence, FDSS; host cell line not named in the record; reference of the full effect not given here | hit rate 0.12% among 410,000 | AID 624414 | activation, % (concentration not given with the values); in the data active = activation above about 50%; inconclusive = about 30% to 50%; inactive = below about 30%; further: 0% is about no effect; the text of the record puts the active cut at 80%
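Kinetic FDSS Ca2+ read in Tet-induced TRPML1-DL cells (ABD Ca8 dye plus quencher, 45-90 min RT loading): baseline, then compound, then 110 s agonist window; EC80 agonist 54-4 at 4uM final added afterwards for a 110 s antagonist window.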
PINK1 modulator – PINK1 expression modulation; Potency, µM (series often up to 76.6 µM), without a hit: top-dose activation (PINK1 increase), most hits filed as activators; AID 624263; PINK1 immunofluorescence, high-content cytometry, 24 h; hit rate 0.2% among 410,000; active = well fitted activation curve with a large enough effect; inconclusive = small, poorly fitted or top-dose-only effect; inactive = flat fitted curve, though single readings scatter; cell line not stated here;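 further: potency means the concentration at half of the fitted maximal effect; % of control where 0% means no effect; nearly all actives have a fitted effect of over 65% in size; a mitochondrial uncoupler was the plate control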
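Measures PINK1 amount and localization on or inside mitochondria by immunofluorescence. Stable cells get compounds at 5 concentrations for 24 hours before fixation and staining; CCCP controls included.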
* = called active by the depositor; & = joins results of further samples; [ ] = another dose, or the depositor's remark.

Results for CCOC(=O)N1CCC(N2Cc3cccc(C(=O)NC(C)c4ccc5c(c4)OCCO5)c3C2=O)CC1 (configuration not stated) ?
D2 ag: -4.6; TRPML1 inh: -7.5; Six1-Eya2 inh: -1.9; D2 potentiator: 0.3; TRPML1 ag: 1.3; PINK1 modulator: 0.6%

How did COc1ccc(CCNc2oc(-c3ccc(OC)c(OC)c3)nc2P(=O)(OC)OC)cc1OC do in these assays?
D2 ag: -4.1; TRPML1 inh: -7.8; Six1-Eya2 inh: -9.2; D2 potentiator: -2.8; TRPML1 ag: -0.9; PINK1 modulator: 0.4%

What do the screens show for `CCOc1ccc(NC(=O)Nc2cc(C(=O)O)ccc2N2CC3CC(C2)c2cccc(=O)n2C3)cc1` (configuration not stated)?
D2 ag: 1.2; TRPML1 inh: inconclusive; Six1-Eya2 inh: -1.1; D2 potentiator: -7.1; TRPML1 ag: 0.3; PINK1 modulator: -0.4%

How did Cc1ccc(C)c(OCC(=O)NNC(=O)CSC(=S)N2CCCC2)c1 do in these assays?
D2 ag: -3.2; TRPML1 inh: 5.4; Six1-Eya2 inh: -1.9; D2 potentiator: -4.8; TRPML1 ag: -0.3; PINK1 modulator: -1.0%

Results for CCC(C)(C)NC(=O)CN(C(=O)CCC(=O)Nc1nccs1)c1cccc(C)c1 ?
D2 ag: -3.0; TRPML1 inh: -1.3; Six1-Eya2 inh: 2.0; D2 potentiator: -9.0; TRPML1 ag: -0.4; PINK1 modulator: -0.7%

Results for CCC1(c2ccc(F)cc2)NC(=O)N(CC(=O)N(CCC#N)c2ccccc2)C1=O (configuration not stated) ?
D2 ag: 0.5; TRPML1 inh: -13.6; Six1-Eya2 inh: 1.9; D2 potentiator: inconclusive; TRPML1 ag: 1.0; PINK1 modulator: -0.7%

What do the screens show for `CCOC(=O)C1CCN(C(=O)C2CCC(=O)N(Cc3cccc(C(F)(F)F)c3)C2)CC1` (configuration not stated)?
D2 ag: -1.2; TRPML1 inh: 6.5; Six1-Eya2 inh: 3.2; D2 potentiator: 11.9; TRPML1 ag: 0.0; PINK1 modulator: 5.0%

How did Cc1ccccc1COc1ccc(-c2nnn(CC(=O)O)n2)cc1 do in these assays?
D2 ag: -5.3; TRPML1 inh: 6.9; Six1-Eya2 inh: -4.6; D2 potentiator: 0.8; TRPML1 ag: -0.3; PINK1 modulator: 0.7%

Results for O=C(Nc1ccc(F)c(F)c1)C1CCCCC1 ?
D2 ag: 0.4; TRPML1 inh: 7.7; Six1-Eya2 inh: 6.0; D2 potentiator: -44.3; TRPML1 ag: -1.1; PINK1 modulator: 4.0%

Results for Nc1ncnc2c1ncn2CCN1CCCCC1 ?
D2 ag: -3.5; TRPML1 inh: 14.5; Six1-Eya2 inh: 2.6; D2 potentiator: -20.6; TRPML1 ag: 0.1; PINK1 modulator: 1.1%

What do the screens show for `Cc1c(C(=O)N2CCCCC2)oc2ccc(Br)cc12`?
D2 ag: -4.3; TRPML1 inh: -6.0; Six1-Eya2 inh: -1.1; D2 potentiator: 5.6; TRPML1 ag: -0.2; PINK1 modulator: -0.9%

What do the screens show for `COc1ccccc1NS(=O)(=O)c1cc(-c2cnc(C3CC3)o2)ccc1C`?
D2 ag: 5.7; TRPML1 inh: 2.7; Six1-Eya2 inh: -13.4; D2 potentiator: -8.3; TRPML1 ag: 0.9; PINK1 modulator: 2.3%

How did Cc1ccccc1C(=O)N1c2ncnn2C2(CCCCC2)[C@@H]2CCCC[C@@H]21 do in these assays?
TRPML1 inh: 0.0; TRPML1 ag: 0.6; PINK1 modulator: 0.7%

What do the screens show for `O=C(COc1ccc(F)cc1Cl)Nc1cc(S(=O)(=O)N2CCOCC2)ccc1N1CCCCC1`?
D2 ag: -5.0; TRPML1 inh: -0.7; Six1-Eya2 inh: -13.0; D2 potentiator: -19.5; TRPML1 ag: 0.3; PINK1 modulator: -0.9%

What do the screens show for `CCCCC(=O)Nc1ccc(S(=O)(=O)Nc2nccc(C)n2)cc1`?
D2 ag: -2.7; TRPML1 inh: -13.4; Six1-Eya2 inh: 3.2; D2 potentiator: -6.0; TRPML1 ag: 0.3; PINK1 modulator: 1.1%

How did N#CC12CCCCC1CC1CCCCC1(C#N)N2Cc1ccccn1 (configuration not stated) do in these assays?
D2 ag: -3.3; TRPML1 inh: -20.3; Six1-Eya2 inh: -16.2; D2 potentiator: -19.0; TRPML1 ag: 0.6; PINK1 modulator: 1.0%

What do the screens show for `CCN(C(=O)c1c(C)noc1C)c1c(N)n(Cc2ccccc2)c(=O)[nH]c1=O`?
D2 ag: 0.9; TRPML1 inh: -13.1; Six1-Eya2 inh: 2.0; D2 potentiator: -0.1; TRPML1 ag: 0.6; PINK1 modulator: 1.6%

What do the screens show for `O=c1[nH]c2ccccc2c2nc(-c3cccc(S(=O)(=O)N4CCCC4)c3)nn12`?
D2 ag: 0.0; TRPML1 inh: 1.8; Six1-Eya2 inh: -85.5*; D2 potentiator: 1.9; TRPML1 ag: -0.4; PINK1 modulator: 2.2%

How did Cc1ccc2c(c1)NC(c1cccnc1)=NC(c1ccc(F)cc1)=N2 do in these assays?
TRPML1 inh: -12.3; TRPML1 ag: 2.0; PINK1 modulator: 0.3%

How did O=C(O)C1Cc2ccccc2CN1C(=O)COc1ccc(Cl)cc1 (configuration not stated) do in these assays?
D2 ag: 1.8; TRPML1 inh: -14.2; Six1-Eya2 inh: 1.7; D2 potentiator: 0.6; TRPML1 ag: 1.6; PINK1 modulator: -1.9%

How did COc1ccc(CCNC(=O)CC2SC(=NCCc3ccccc3)NC2=O)cc1OC (configuration not stated) do in these assays?
D2 ag: -7.2; TRPML1 inh: 7.9; Six1-Eya2 inh: 8.3; D2 potentiator: -2.8; TRPML1 ag: -0.2; PINK1 modulator: 1.1%

How did CC(=O)N=c1scc(-c2ccccc2)n1-c1cccc(O)c1 do in these assays?
D2 ag: 0.3; TRPML1 inh: -7.4; Six1-Eya2 inh: 0.4; D2 potentiator: -3.2; TRPML1 ag: -0.7; PINK1 modulator: 1.7%

How did CN1CCN(c2nc3c(c(=O)n(C)c(=O)n3C)n2CC(N)=O)CC1 do in these assays?
D2 ag: -0.2; TRPML1 inh: 10.7; Six1-Eya2 inh: 4.7; D2 potentiator: -11.5; TRPML1 ag: -0.3; PINK1 modulator: -0.1%[38.3 µM]

What do the screens show for `CCOC(=O)Cc1cc(=O)[nH]n(-c2ccccc2)c1=O`?
D2 ag: -6.9; TRPML1 inh: -4.8; Six1-Eya2 inh: 4.9; D2 potentiator: -5.1; TRPML1 ag: 0.1; PINK1 modulator: 1.7%

What do the screens show for `O=C(Nc1cccc(C(=O)N2CCCCCC2)c1)c1ccco1`?
D2 ag: 1.0; TRPML1 inh: 14.9; Six1-Eya2 inh: 12.5; D2 potentiator: -4.9; TRPML1 ag: -0.1; PINK1 modulator: -2.6%

What do the screens show for `Cc1ccc(NC(=O)CSc2nncn2C)c(C)c1`?
TRPML1 inh: -14.0; TRPML1 ag: 0.3; PINK1 modulator: -2.1%

How did CCN1CCN(C(=O)CN2C(=O)c3cccc4cccc2c34)CC1 do in these assays?
D2 ag: -0.1; TRPML1 inh: 2.8; Six1-Eya2 inh: -3.3; D2 potentiator: -6.2; TRPML1 ag: -0.2; PINK1 modulator: 1.4%

What do the screens show for `Cc1ccc(Cl)cc1NC(=O)Nc1nnc(N2CCCC(C)C2)s1` (configuration not stated)?
TRPML1 inh: 5.5; TRPML1 ag: -0.8; PINK1 modulator: 1.5%

What do the screens show for `Cc1ccc(-n2c(-c3ccco3)nc3c(cnn3-c3ccc(C)cc3)c2=O)cc1`?
D2 ag: -1.2; TRPML1 inh: -2.3&-0.5; Six1-Eya2 inh: 3.7; D2 potentiator: -5.6; TRPML1 ag: 0.4&-0.5; PINK1 modulator: 0.5%&3.9%

How did Cc1ccc(C(C)C)c(OCCSc2nc(-c3cccs3)nc3cc(=O)[nH]n23)c1 do in these assays?
TRPML1 inh: -4.4; TRPML1 ag: -0.1; PINK1 modulator: 4.5%

What do the screens show for `O=C(CN1CCc2ccccc2C1)NCc1ccco1`?
D2 ag: -4.9; TRPML1 inh: -1.3; Six1-Eya2 inh: 0.0; D2 potentiator: -12.1; TRPML1 ag: -0.9; PINK1 modulator: -0.6%

Results for COc1cc(NC(=O)CN2c3ccccc3S(=O)(=O)c3ccccc32)cc(OC)c1 ?
TRPML1 inh: inconclusive; TRPML1 ag: 0.5; PINK1 modulator: 1.9%

Results for CCOC(=O)c1ccc(NS(=O)(=O)c2ccc3oc(=O)[nH]c3c2)cc1 ?
D2 ag: -1.9; TRPML1 inh: 3.6; Six1-Eya2 inh: -2.0; D2 potentiator: 2.9; TRPML1 ag: -0.4; PINK1 modulator: 0.3%

What do the screens show for `COc1ccccc1CC1CC(=O)N(c2cccc(Cl)c2C)C1=O` (configuration not stated)?
D2 ag: -2.3; TRPML1 inh: -0.2; Six1-Eya2 inh: 9.7; D2 potentiator: -14.4; TRPML1 ag: -0.2; PINK1 modulator: 0.2%

What do the screens show for `CC(OC(=O)CNS(=O)(=O)c1ccc(C#N)cc1)C(=O)Nc1ccc(Cl)cn1` (configuration not stated)?
D2 ag: 2.3; TRPML1 inh: -9.2; Six1-Eya2 inh: -1.2; D2 potentiator: -1.3; TRPML1 ag: 0.4; PINK1 modulator: 5.2%

What do the screens show for `Cc1nc2ccc(Nc3nc4cc(S(=O)(=O)N5CCOCC5)ccc4o3)cc2s1`?
D2 ag: -0.7; TRPML1 inh: -15.2; Six1-Eya2 inh: -21.0; D2 potentiator: 4.7; TRPML1 ag: 0.1; PINK1 modulator: -1.3%

What do the screens show for `Cc1ccc(NC2=Nc3ccccc3CC2)cc1`?
D2 ag: -5.1; TRPML1 inh: 6.1; Six1-Eya2 inh: -7.2; D2 potentiator: -56.0; TRPML1 ag: -0.8; PINK1 modulator: 6.0%

What do the screens show for `O=C(COC(=O)c1cc(S(=O)(=O)N2CCCC2)ccc1O)Nc1ccc(S(=O)(=O)N2CCOCC2)cc1`?
D2 ag: -0.8; TRPML1 inh: 13.8; Six1-Eya2 inh: -1.2; D2 potentiator: -6.5; TRPML1 ag: -0.2; PINK1 modulator: 0.7%

What do the screens show for `CC(=O)COc1ncnc2c(Cl)cc(Cl)cc12`?
D2 ag: -1.1; TRPML1 inh: 6.9; Six1-Eya2 inh: -1.5; D2 potentiator: -6.4; TRPML1 ag: -0.9; PINK1 modulator: 0.5%

Results for COc1ccc(NC(=O)C2(c3ccc(NC(=O)c4ccc(OC(C)=O)cc4)cc3)CCCC2)cc1 ?
D2 ag: 1.7; TRPML1 inh: -5.5; Six1-Eya2 inh: -11.4; D2 potentiator: -11.5; TRPML1 ag: -0.3; PINK1 modulator: 2.3%[38.3 µM]

Two neighbouring records from above:
What do the screens show for `O=C(CN1CCc2ccccc2C1)NCc1ccco1`?
D2 ag: -4.9; TRPML1 inh: -1.3; Six1-Eya2 inh: 0.0; D2 potentiator: -12.1; TRPML1 ag: -0.9; PINK1 modulator: -0.6%

Results for COc1cc(NC(=O)CN2c3ccccc3S(=O)(=O)c3ccccc32)cc(OC)c1 ?
TRPML1 inh: inconclusive; TRPML1 ag: 0.5; PINK1 modulator: 1.9%

This is a random part of the collection (roughly 1% active in at least one column).
